Screens as filed in PubChem.
HTT promoter inh: Primary qHTS for Identification of Small Molecule Inhibitors of Huntingtin Promoter Activity | HEK293 HTT promoter firefly luciferase reporter (activity 0% = vehicle and -100% = no light), 24 h | Potency, µM (titrated, usually from 57.5 µM), inactives show top-dose activity change, negative = inhibition, hits mostly inhibitors | 0.93% of 48,000 active | AID 1508623, 2021; active = well fitted inhibition curve with a large enough effect; inconclusive = small, poorly fitted or top-dose-only effect; inactive = no such curve, though single readings can be large or run the other way; also: nearly all actives have a fitted effect of over 50% in size
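HEK293 luciferase promoter-reporter cells (2,500/well) plated 24 h, then compounds added at up to 57.5 uM final for 24 h at 37 °C. Firefly luminescence by Dual-Glo, normalized to vehicle (0%) and zero RLU (-100%).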
PMP22 txn prim: Cell-based coincidence reporter assay to measure PMP22 gene transcription in S16 Pmp22-F2sN cells - Primary screen; S16 Pmp22-F2sN Schwann cells (luciferase reporters placed in the Pmp22 gene), FLuc/NLuc coincidence luminescence, 24 h; Potency, µM (highest dose often 57.5 µM), inactives show at the top dose activity change, negative = inhibition, hits mostly inhibitors; 2% of 43,000 active; AID 1508649, 2021; active = clear falling dose curves in both reporters; inconclusive = both reporters move, but less clearly or upward; inactive = either reporter flat; the % is the NLuc reporter signal; also: % is scaled to controls: 0 for no effect and ±100 for the full control effect; some results filed as inactive show a strong effect at the top dose
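Luminescent read-out of sequential FLuc and NLuc signals from a reporter embedded in the Pmp22 3' UTR of S16 Schwann cells, taken after 24 h compound exposure at 37C; compounds reducing both signals score as inhibitors of expression.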
Starred values were filed as active, the others as inactive; u = inconclusive; x = not tested or not shown; [ ] = remark or other dose. Potency is read from the fitted curve at half-maximal effect.

SMILES	HTT promoter inh	PMP22 txn prim
CC1=C(C(=O)Nc2ccc(Cl)cc2)C(c2ccc(C(F)(F)F)cc2)n2nnnc2N1 (stereo unspecified)	-18%	u
CCOc1ccc(NC(=O)CNS(=O)(=O)c2ccc(Br)s2)cc1	-33%	u
COc1ccc(CCNC(=O)CCCn2nc(C)c3sc4ccccc4c3c2=O)cc1OC	0%	-32%
CCC(C)NC(=O)c1sc2nc(C)c(C(=O)Nc3ccc(C)cc3C)c(-c3ccc(NC(C)=O)cc3)c2c1N (stereo unspecified)	-29%	53%
CCC(C)NC(=O)CSc1nc2cc3c(cc2c(=O)n1CCCC(=O)NCc1ccc2c(c1)OCO2)OCO3 (stereo unspecified)	-14%	35%
COc1ccc(N2CCN(CCCNC(=O)c3ccc4nc(Cc5ccccc5)oc4c3)CC2)cc1	u	19µM*
CCn1c(SCC(=O)Nc2cc(C)ccc2F)nnc1-c1ccccc1O	-11%	-24%
COc1ccc(OC)c(CCNc2ncnc3onc(-c4ccc(Cl)cc4)c23)c1	-26%	1%
Nc1ccc(C(=O)Oc2ccccc2)c(O)c1	11%	x
CC(C)CCNC(=O)c1ccc2nc(CCc3ccccc3)oc2c1	30%	-15%
CCOC(=O)c1ccc(NC(=O)CSc2ccc3ccccc3n2)cc1	3%	-21%
O=C(NCCCCN1CCOCC1)c1cc2ccccc2o1	4%	x
Cc1cc(C)cc(OCc2cc(=O)n3c(-c4ccccc4)csc3n2)c1	-1%	u
CC1=C(C(N)=O)C(c2ccc(F)cc2)n2nc(-c3ccc(N(C)C)cc3)nc2N1 (stereo unspecified)	-15%	-9%
O=C(Nc1ccc(Br)cc1)c1cc(S(=O)(=O)N2CCc3ccccc32)ccc1F	u	u
CC(=O)N1CCOc2cc(S(=O)(=O)Nc3cccc(C(F)(F)F)c3)c(Cl)cc21	u	u
COC(=O)c1ccc(NC(=O)CN2C(=O)CCc3cc(S(=O)(=O)N4CCCCC4)ccc32)cc1	u	-11%
O=C(Nc1nnc(S(=O)(=O)N2CCCc3ccccc32)s1)c1ccccc1Br	u	-34%
Cc1cc(C)cc(-n2ccn(Cc3ccc(F)cc3)c(=O)c2=O)c1	-25%	-5%
O=C(Cn1c(=O)c2cccn2c2ccc(F)cc21)NCc1cccc(Cl)c1	2%	-4%
Cc1ccc2c(=O)cc(C(=O)Nc3sc4c(c3C(=O)NCc3ccco3)CCC4)oc2c1	-3%[11.5 µM]	-29%
CC(=O)Nc1cc(C(=O)NCc2ccc(F)cc2)ccc1S(=O)(=O)c1ccc(C)cc1	-24%	-7%
COC(=O)c1ccccc1NC(=O)Cn1cnc2sc(C)c(S(=O)(=O)N3CCC(C)CC3)c2c1=O	-27%	-17%
O=C(Cn1nc(-c2ccc(Cl)cc2)c2ccccc2c1=O)Nc1cccc(C(F)(F)F)c1	u	-19%
CCc1nn(CC(=O)NCCc2ccc(OC)cc2OC)c(=O)c2cc3occc3n12	-18%	-1%
Cc1ccc2c(=O)c(C(=O)c3cccc(Cl)c3)cn(CC(=O)NCc3ccc(F)cc3)c2n1	-15%	4%
Cn1c(=O)c(=O)n(C)c2cc(S(=O)(=O)N3CCCC3C(=O)Nc3cccc(F)c3)ccc21 (stereo unspecified)	2%	3%
COc1ccc(C)cc1Nc1ncnc2c1c(-c1ccccc1)cn2-c1ccc(C)cc1	-25%	-15%
CCOC(=O)c1sc2ccccc2c1S(=O)(=O)N1CCN(c2ccccc2)CC1	u	-10%
COc1ccc(S(=O)(=O)N2Cc3ccccc3CC2C(=O)Nc2cccc(C)c2)cc1OC (stereo unspecified)	-12%[11.5 µM]	-7%

Taken from above for reference:
SMILES	HTT promoter inh	PMP22 txn prim
Cc1ccc2c(=O)c(C(=O)c3cccc(Cl)c3)cn(CC(=O)NCc3ccc(F)cc3)c2n1	-15%	4%
Cn1c(=O)c(=O)n(C)c2cc(S(=O)(=O)N3CCCC3C(=O)Nc3cccc(F)c3)ccc21 (stereo unspecified)	2%	3%
COc1ccc(C)cc1Nc1ncnc2c1c(-c1ccccc1)cn2-c1ccc(C)cc1	-25%	-15%

Next structures follow:
SMILES	HTT promoter inh	PMP22 txn prim
COc1ccc(CCNS(=O)(=O)c2ccc(F)c(C(=O)Nc3ccc(Cl)cc3)c2)cc1OC	u	u
CN(C)c1ccc(C(CNS(=O)(=O)c2ccc(Br)cc2)N2CCOCC2)cc1 (stereo unspecified)	-16%	-10%
COc1cc(NC(=O)CN2CCN(c3ccc(F)cc3)CC2)cc(OC)c1	-18%	11%
CCn1cc(/C=C(\NC(=O)c2ccc(C)cc2)C(=O)NCCCn2ccnc2)c2ccccc21	-1%	-20%
COc1ccc(NC(=O)CSc2ccc(-c3cccs3)nn2)cc1	10%	-9%
COc1cccc(CNC(=O)c2c(C)oc3ncnc(N4CCOCC4)c23)c1	-8%	-16%
CSc1ccc(-c2nc3c(C)cccn3c2Nc2ccc3c(c2)OCCO3)cc1	-3%	-8%
COc1ccc(NC(=O)Cc2c(C(=O)O)[nH]c3ccccc23)cc1OC	-16%	12%
COc1ccc(Br)cc1CNC(=O)c1cc(=O)[nH]c2ccc(S(=O)(=O)N3CCCCC3)cc12	-1%	u
CCN(C(=O)Cn1nc2c3cc(F)ccc3n(Cc3cccc(C)c3)cc-2c1=O)c1cccc(C)c1	-2%	2%
CCCCN(CC)CCCNC(=O)C1CCN(c2nc3ccc(CC)cc3s2)CC1	-23%	u
O=C(CCC1N=C2c3ccccc3N=C(SCc3ccccc3Cl)N2C1=O)NCCc1ccccc1 (stereo unspecified)	-2%	-3%
Cc1c(Cl)cccc1-n1ncc(C(=O)Nc2ccc(F)cc2F)c1C1CCN(C(=O)OC(C)(C)C)CC1	u	u
COC(=O)c1cc(S(=O)(=O)N2CCN(c3ccc(F)cc3)CC2)cn1C	-22%	-17%
CNC(=O)c1c(NC(=O)c2ccc(S(=O)(=O)N3CCCC(C)C3)cc2)sc2c1CCC2 (stereo unspecified)	-7%	u
CCC(=O)N1CCc2cc(Br)cc(S(=O)(=O)N3CCCC(C(=O)Nc4cccc(F)c4)C3)c21 (stereo unspecified)	u	u
COc1ccc(S(=O)(=O)N2CCCN(CC(=O)Nc3ccc(NC(C)=O)cc3)CC2)cc1	-2%	11%
Cc1cccc(-n2c(SCC(=O)Nc3ccc(C)c(C)c3)nc3n[nH]c(C)c3c2=N)c1	u	u
COC(=O)c1ccc(Cn2c(SCC(=O)Nc3ccc(F)cc3)nc3ccccc32)cc1	u	-9%
CCCN(C(=O)c1cc2c(s1)-c1ccccc1OC2)c1ccc(C(C)C)cc1	-1%	u
COc1cccc(C(=O)Nc2c3c(nn2-c2ccc(Cl)cc2)CS(=O)(=O)C3)c1	-11%	8%
CCOc1cc2[nH]c(=O)n(Cc3ccc(C(=O)N4CCN(c5ccccc5)CC4)cc3)c(=O)c2cc1OCC	-26%	u
Cc1cccc(N2CCN(c3ccc(C(=O)O)cc3NC(=O)c3ccccc3F)CC2C)c1 (stereo unspecified)	-26%	u
Cc1cc(C)cc(NC(=O)N2CCN(c3cc(-c4noc(C)n4)ccc3C)CC2)c1	u	-1%
Cc1nn2c3c(cnc2c1-c1ccc(F)cc1)C(=O)CC(c1ccccc1)C3 (stereo unspecified)	-6%	-28%
COc1cc(CN(C(=O)c2cccc(C)c2)c2ccccn2)cc(OC)c1OC	-31%	0%
Cc1ccc(CNC(=O)CSc2nc(=O)[nH]c3c2CCCC3)cc1	-4%	u
CCOC(=O)C1=C[C@@H](OC(CC)CC)[C@H](NC(C)=O)[C@@H](N)C1	8%	x
CCc1ccc(NC(=O)N(Cc2c[nH]c3ccccc23)C2CCCCCC2)cc1	38%[activator]	-52%
CCOc1ccccc1NC(=O)CSc1nc2c(oc3ccccc32)c(=O)n1-c1ccc(C)c(C)c1	-13%	-14%
O=C(Nc1ccccc1C(=O)OCc1cc(=O)n2ccsc2n1)c1ccc(Cl)cc1	4%	-7%
Cc1ccc(NC(=O)Cn2nc3c(cc2=O)CCCC3)cc1Cl	-1%	-14%
CCOc1ccccc1C(=O)N(Cc1cc(OC)c(OC)c(OC)c1)C1CCS(=O)(=O)C1 (stereo unspecified)	-8%	u
COc1ccc(Cl)cc1NC(=O)c1cc(C)nc2c1c(C)nn2-c1ccccc1	0%	-12%
Cc1ccc2scc(N3CCC(C)CC3)c(=O)c2c1	12%	u
CN(Cc1ccccc1)C(=O)CN1C(=O)CSc2ccc(S(=O)(=O)N3CCOCC3)cc21	-9%	-13%
Cc1c2cnn(-c3ccccc3)c(=O)c2c(C)n1CCCC(=O)Nc1cccc(F)c1	-2%	-15%
CCCCNC(=O)CCn1nc(-c2ccc(Cl)cc2)c2ccccc2c1=O	u	u
CCOc1ccc(C(=O)NCCn2cc(SCC(=O)Nc3ccccc3)c3ccccc32)cc1	u	u
CCc1nn2c(=O)c(S(=O)(=O)Nc3ccc(Br)cc3F)c(C)nc2s1	-27%	34%
Cc1ccc(C(=O)Nc2c(C)nc3ccccn3c2=O)cc1C	52%[activator]	-2%
O=C(NCCS(=O)(=O)N1CCN(c2ccc(F)cc2)CC1)C1CC(=O)N(c2ccc(F)cc2)C1 (stereo unspecified)	-5%	-4%
COc1ccc(CNC(=O)Nc2ccc3c(c2)N(C)C(=O)c2ccccc2S3)cc1	u	u
CCOC(=O)CN1C(=O)c2ccccc2Sc2ncccc21	-19%	-50%
CCOC(=O)OC(C)OC1=C(C(=O)Nc2ccccn2)N(C)S(=O)(=O)c2ccccc21 (stereo unspecified)	7%	x
Cc1cc(C)cc(NC(=O)c2cnn(-c3ccc(C)c(C)c3)c2C2CCNCC2)c1	-18%	u
COc1cccc(C(=O)NCC(=O)OCc2cc(=O)n3ccsc3n2)c1	-13%	10%
COc1ccc(CNC(=O)Cc2ccc(NC(=O)N3CCSc4ncccc43)cc2)cc1	u	-4%
CC(=O)N1c2ccc(S(=O)(=O)NCCC(=O)N(C)Cc3ccccc3)cc2CC1C (stereo unspecified)	-20%	-8%
Cc1ccc(C(=O)NCC(c2ccco2)S(=O)(=O)c2ccc(Cl)cc2)cc1C (stereo unspecified)	-35%	2%
Cc1ccccc1OCc1nnc(SCc2cc(=O)c3ccc(C)c(C)c3[nH]2)n1C	0%	u
COc1cc(-c2noc(-c3nnn(-c4ccc(Cl)cc4)c3C)n2)cc(OC)c1OC	-7%	-4%
Cc1ccc(C)c(NC(=O)Cn2cc(C(=O)c3ccncc3)c(=O)c3cc(F)ccc32)c1	-17%	-11%
COC(=O)c1ccc(C2Nc3c(C)cc(C)cc3C3C=CCC32)cc1 (stereo unspecified)	-6%	-7%
Cc1ccc(CNC(=O)c2cccc(N3CCCS3(=O)=O)c2)cc1	u	-18%
Cc1nn(CC(=O)Nc2cccc(C(F)(F)F)c2)c(=O)c2nn(-c3ccccc3)c(C)c12	-5%	-10%
CC(=O)c1cccc(NC(=O)Cn2c(=O)oc3cc(S(=O)(=O)N4CCCC4)ccc32)c1	-32%	-26%
Cc1ccccc1-c1nnc(C2CCN(S(=O)(=O)c3ccc(Cl)cc3)CC2)o1	16µM*	u
CCc1ccc(CNC(=O)Cn2nc(-c3ccc(Cl)cc3)ccc2=O)cc1	-29%	u
COc1cc2nc(NCc3ccccc3)n3nc(-c4ccccc4)nc3c2cc1OC	-3%	7%
(next part)
SMILES	HTT promoter inh	PMP22 txn prim
COC(=O)c1ccc2c(c1)N(Cc1ccccc1)C(=O)c1ccccc1S2(=O)=O	u	-26%
O=C(CCC1N=C2c3ccccc3N=C(SCc3cccc(Cl)c3)N2C1=O)NCCc1ccccc1 (stereo unspecified)	u	u
Cn1c(NCCO)nc2c1c(=O)n(Cc1cccc(F)c1)c(=O)n2C	8%	-27%
Cc1c(/C=C(\C#N)C(=O)Nc2cccc(Cl)c2)c2ccccc2n1Cc1ccccc1	u	-17%
CCOc1cc(Cl)c(S(=O)(=O)n2cc(C)nc2CC)cc1Cl	16µM*	u
O=C(/C=C\c1ccccc1)NC1CC(=O)N(c2ccccc2)C1 (stereo unspecified)	-27%	3%
O=C(CCS(=O)(=O)c1nc(-c2ccc3c(c2)OCO3)cc(C(F)(F)F)n1)Nc1ccccc1C(F)(F)F	-19%	-22%
O=C(O)c1ccnc(-c2cc(C(=O)NCCc3ccccc3)ccn2)c1	3%	x
Cc1cc(C)cc(-n2c(C)cc(C(=O)C(=O)Nc3nnc(C)s3)c2C)c1	-27%	6%
COc1ccc(-c2noc(CSc3nc4ccccc4[nH]3)n2)cc1OC	u	u

Part of the list above, with bars between the fields:
Compound | HTT promoter inh | PMP22 txn prim
CCOc1cc(Cl)c(S(=O)(=O)n2cc(C)nc2CC)cc1Cl | 16µM* | u
O=C(O)c1ccnc(-c2cc(C(=O)NCCc3ccccc3)ccn2)c1 | 3% | x
COc1ccc(-c2noc(CSc3nc4ccccc4[nH]3)n2)cc1OC | u | u

Compounds above that contain a COOH group (3):
SMILES	HTT promoter inh	PMP22 txn prim
COc1ccc(NC(=O)Cc2c(C(=O)O)[nH]c3ccccc23)cc1OC	-16%	12%
Cc1cccc(N2CCN(c3ccc(C(=O)O)cc3NC(=O)c3ccccc3F)CC2C)c1 (stereo unspecified)	-26%	u
O=C(O)c1ccnc(-c2cc(C(=O)NCCc3ccccc3)ccn2)c1	3%	x
